A488 autofl – A488 region autofluorescence; compound autofluorescence, A488 spectral region, dye equivalency; hits give high values; max dye equivalency, M; hit rate 0.1% among 59,000; AID 591; active = above 10 nM dye equivalent; inconclusive = 1 to 10 nM; inactive = 1 nM or less; about half of its hits are not listed in these tables;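 also: highest value over a series up to 38 µM; compound alone in buffer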
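Compound autofluorescence was read in 100 mM Tris pH 8.0 after 15 min at room temperature, ex 480 nm/em 540 nm. Intensities were converted to A488 dye-equivalent concentration using an on-plate six-point A488 standard curve.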
AID923 – qHTS Assay for Allosteric/Competitive Inhibitors of Caspase-1: Spectroscopic Profiling in AFC Spectral Region; compound fluorescence, AFC spectral region (405/520 nm); almost no hit is shown here; Potency, µM (titrated, usually from 57.5 µM), for inactives: at the highest dose fluorescence increase, most hits filed as activators; hit rate 1.1% among 75,000; AID 923, 2007; active = well fitted activation curve with a large enough effect; inconclusive = small, poorly fitted or top-dose-only effect;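 also: potency is read from the fitted curve at half-maximal effect; 0% is about no effect; scaled to a free AFC standard on each plate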
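Baseline compound fluorescence (AFC region, 405 nm ex/520 nm em) taken from the intercept of kinetic reads with 50 nM caspase-1 and 5 uM Ac-WEHD-AFC; normalized to an on-plate AFC standard curve; compounds titrated up to 57 uM.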
TSHR agonist – TSH receptor (human) agonism; AID 926; P16473; hit rate 0.48% among 73,000; Potency, µM (top dose mostly 57.1 µM), for the others: at the top dose activation, usual class: activators; HEK293-CNG-TSHR cells (CNG channel as cAMP sensor), membrane potential dye, cAMP; active = well fitted activation curve of enough size with the parental cells flat; inconclusive = any curve in the parental cells; inactive = parental cells flat and receptor cells flat or falling; also: potency is read from the fitted curve at half-maximal effect; % of control where 0% means no effect; weak receptor curves with flat parental cells got no call and are not listed
Target sequence (P16473 whole entry, looked up): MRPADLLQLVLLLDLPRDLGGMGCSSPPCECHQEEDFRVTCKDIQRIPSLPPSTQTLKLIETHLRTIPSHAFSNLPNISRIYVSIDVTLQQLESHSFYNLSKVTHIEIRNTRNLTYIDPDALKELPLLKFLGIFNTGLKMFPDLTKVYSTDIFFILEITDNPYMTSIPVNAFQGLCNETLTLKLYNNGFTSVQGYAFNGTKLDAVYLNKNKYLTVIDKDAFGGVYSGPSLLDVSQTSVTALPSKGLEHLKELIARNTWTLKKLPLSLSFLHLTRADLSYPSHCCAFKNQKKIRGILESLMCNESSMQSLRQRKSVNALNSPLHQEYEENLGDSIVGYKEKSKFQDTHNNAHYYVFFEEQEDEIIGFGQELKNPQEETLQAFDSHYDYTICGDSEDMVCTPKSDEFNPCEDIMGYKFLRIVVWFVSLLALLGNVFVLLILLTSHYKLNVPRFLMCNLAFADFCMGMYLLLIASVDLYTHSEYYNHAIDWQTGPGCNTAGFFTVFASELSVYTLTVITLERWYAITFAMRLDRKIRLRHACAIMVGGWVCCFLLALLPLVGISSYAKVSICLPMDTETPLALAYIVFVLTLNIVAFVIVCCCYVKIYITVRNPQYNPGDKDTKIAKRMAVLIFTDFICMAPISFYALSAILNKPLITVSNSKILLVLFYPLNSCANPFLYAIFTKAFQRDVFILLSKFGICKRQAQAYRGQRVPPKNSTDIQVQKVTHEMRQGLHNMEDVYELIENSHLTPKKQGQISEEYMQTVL
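cAMP rise detected as CNG-channel membrane depolarization by fluorescent dye (emission 590 nm), 30 min after compound, following 60 min dye loading containing 100 uM RO 20-1724 at room temperature. Cells: TSHR/CNG HEK 293, with parental CNG HEK 293 as control.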
A647 autofl – compound autofluorescence in A647 spectral region | max dye-equivalent concentration, M | Compound fluorescence, A647 channel (570/671 nm), Tris buffer | 59,000 tested, under 10 active | AID 592; active means above 1 µM dye equivalent; inconclusive means 0.1 to 1 µM; inactive means 0.1 µM or less;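 also: values scaled relative to a standard on each plate; highest value over a series up to 38 µM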
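Compound fluorescence was measured in 100 mM Tris buffer, pH 8.0, after 15 min at room temperature, using 570 nm excitation and 671 nm emission filters. Signal was normalized to a per-plate Alexa 647 standard curve and expressed as dye-equivalent concentration at each compound concentration.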
Resorufin fluor – compounds fluorescent in resorufin spectral region; AID 588; Compound fluorescence, resorufin region 547/598 nm, buffer; hits give high values; hit rate 0.04% among 59,000; max dye-equivalent concentration, M; active = above 10 nM dye equivalent; inconclusive = 1 to 10 nM; inactive = 1 nM or less; a few of its hits are not listed in these tables; also: highest value over a series up to 38 µM
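Tris 100 mM pH 8.0; compound added, 15 min RT; CCD imager read, ex 547 nm/em 598 nm; signal normalized to resorufin standard curve (six concentrations per plate) as dye-equivalent concentration.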
Numbers without * were called inactive; i = inactive; ? = inconclusive; nt = no result given; [ ] = remark or other dose.

Each structure is followed by: A488 autofl, Resorufin fluor, TSHR agonist, AID923, A647 autofl
CSC1=C(C#N)C(c2ccccc2C)C(C#N)=C(N)N1 (stereo not given)
→ i, i, 1%, -0.6%, 3.1e-09
COc1ccc(C2(C(=O)NCCN3CCOCC3)CCOCC2)cc1
→ i, i, 2%, 1.0%, 2.6e-08
CCOC(=O)c1cnc2c(C#N)c(C)nn2c1C
→ i, i, 8%, 0.7%, 3e-08
Cc1cccc(OCCC(=O)NCC(c2ccccc2)N(C)C)c1 (stereo not given)
→ i, i, 9%, 0.5%, 1e-09
CCC(=O)NCCc1cc2ccc(C)c(C)c2[nH]c1=O
→ nt, nt, -12%, 4.4%, nt
O=S(=O)(NC1CCCCC1)c1ccc(S(=O)(=O)N2CCN3CCCC3C2)cc1 (stereo not given)
→ i, i, 20%, 2.0%, 1.3e-08
Fc1ccc(-c2nnc(CN3CCC(c4nc5ccccc5s4)CC3)o2)cc1
→ i, i, ?, 0.2%, 8.7e-09
O=C(Nc1ccc(S(=O)(=O)N2CCOCC2)cc1)c1cccs1
→ i, i, ?, 2.0%, 1.3e-08
Clc1ccc(OCCn2ccnc2)c2ccccc12
→ i, i, -6%, 1.6%, 1e-09
Cc1ccc(Cl)cc1N
→ nt, nt, 5%, 1.1%, nt
C=CCn1c(SCc2cc(=O)n3ccsc3n2)nc2scc(C3CC3)c2c1=O
→ i, i, ?, 1.9%, 7.6e-09
Cc1ccc2cc(CN(C(=O)C3CCCO3)C3CCCCC3)c(=O)[nH]c2c1 (stereo not given)
→ i, i, 8%, -0.2%, 6.8e-09
Cc1nn(CC(=O)N(C)C)c(=O)c2ccccc12
→ i, i, 2%, 8.1%, 2.6e-08
Cc1ccc2c(CC(=O)O)coc2c1C
→ i, i, 14%, 2.4%, 2.7e-08
Cc1ccc(C)n1/N=C1/NC(=O)CS1
→ i, i, 21%, 0.0%, 2.7e-08
COc1cc2c3cc1Oc1cc(ccc1O)C[C@@H]1c4c(cc(OC)c(O)c4Oc4ccc(cc4)C[C@H]3[N+](C)(C)CC2)CC[N+]1(C)C
→ i, i, ?, -1.7%[11.5 µM], 1.9e-08
CC(C)(C)OC(=O)NCCCCCc1nnc(SCC(=O)Nc2cccc(Cl)c2)o1
→ i, i, ?, -0.8%, 3.6e-08
CC(=O)OC/C=C(C)/C=C/C=C(C)/C=C/C1=C(C)CCCC1(C)C
→ nt, nt, ?, -2.8%, nt
O=c1c2oc3ccccc3c2ncn1Cc1ccccc1Cl
→ i, i, 9%, -0.2%, 9.2e-09
Cc1nnc2n1N=CC=C(C(C)(C)C)S2
→ i, i, 3%, -0.2%, 7.1e-09
CCCCC(=O)NCCc1cc2ccc(OC)cc2[nH]c1=O
→ i, i, -4%, 0.4%, 1e-09
COc1cc(N2C(=O)c3ccccc3C2=O)c(Cl)cc1C(=O)OCC(=O)NCc1ccco1
→ i, i, 8%, 0.6%, 1e-09
CCCNC(=O)c1ccccc1C(=O)NCCC
→ nt, nt, -5%, 2.7%, nt
O=C(Nc1ccc2nsnc2c1)c1ccc2c(c1)OCO2
→ i, i, 0%, 3.6%, 1.8e-08
CN(CC(=O)N1CCN(c2ccccn2)CC1)S(=O)(=O)c1ccc(Br)cc1
→ i, i, 11%, -0.4%, 2.9e-08
COc1cc(/C=N/NC(=O)c2cc(-c3ccccc3)n[nH]2)ccc1O
→ nt, nt, -2%, 0.6%, nt
Cc1ccc(S(=O)(=O)NC(=O)Nc2ccc(Cl)cn2)cc1
→ i, i, 3%, 3.0%, 2.8e-08
Nc1nnnn1/N=C/c1ccccc1C(F)(F)F
→ i, i, 4%, -1.7%, 1.4e-08
c1ccc(CN2CC[C@@H](CNc3ncnc4ccccc34)C2)cc1
→ i, i, 12%[11.4 µM], 0.6%[11.5 µM], 6.3e-09
CC(=O)OC(C)=O
→ nt, nt, ?, -2.9%, nt
CSc1cnn(-c2ccccc2)c(=O)c1SC
→ nt, nt, 13%, 1.8%, nt
Cc1ccc(OCC(=O)n2nc(C)cc2C)c(Br)c1
→ nt, nt, ?, 0.2%, nt
CC(=O)NCCn1c(SCC(=O)c2ccccc2)nc2ccccc2c1=O
→ i, i, nt, -1.6%, 1e-09
CC(=O)NCCNc1ncnc2ccc(-c3ccccc3C(F)(F)F)cc12
→ i, i, ?, 1.3%, 2.3e-08
Cn1c(=O)c2c(nc(SCc3cccnc3)n2Cc2ccccc2)n(C)c1=O
→ i, i, 3%, -0.8%, 4.2e-09
CCOC(=O)c1[nH]cnc1C(=O)Nc1ccccn1
→ nt, nt, 1%, -0.8%, nt
CCOc1ccccc1NC(=O)c1ccccc1N(C)S(C)(=O)=O
→ i, i, 3%, -1.6%, 2.7e-09
OC(COc1ccc2c(c1)CCC2)Cn1cnc2ccccc21 (stereo not given)
→ i, i, 12%, 0.4%, 1e-09
COc1cc(NC(=O)c2ccccc2)c(OC)cc1NC(C)=O
→ i, i, 9%, 0.0%, 1.6e-09
COc1ccc(C(=O)Cn2nnc(-c3ccccc3NC(=O)C3CC3)n2)cc1
→ i, i, ?, 1.3%, 1e-09
O=C(CCS(=O)(=O)c1ccc(Br)cc1)NCc1cccs1
→ i, i, 23%, 0.5%, 2.2e-08
CC1CCc2c(sc3nc(SCC(=O)NCc4ccco4)nc(N)c23)C1 (stereo not given)
→ i, i, nt, 2.5%, 2.9e-09
CCc1nc2n[nH]c(N)c2c2c1CSC(C)(C)C2
→ i, i, nt, nt, 3.5e-09
O=C(O)CCCC(=O)Nc1ccc(C(=O)N2CCCCC2)cc1
→ i, i, -1%, 0.9%, 5.1e-08
COCC(=O)N1CCC2(CCCN(c3ccccn3)C2)CC1
→ i, i, -1%, 3.2%, 1.5e-09
COc1ccc(C(OCCN2CCC[C@@H](C(=O)O)C2)(c2ccc(OC)cc2)c2ccc(OC)cc2)cc1
→ nt, nt, 13%, -0.9%, nt
COCCCNC(CC(=O)Nc1ccc(N(C)C)cc1)C(=O)O (stereo not given)
→ i, i, ?, 2.9%, 1.5e-09
Cn1c(=O)[nH]c(=O)c2c1nc(SCC(=O)Nc1ccccc1)n2Cc1ccccc1
→ nt, nt, 2%, 0.0%, nt
Cc1ccc(-c2csc3nnc(SCc4csc(C)n4)n23)cc1
→ i, i, 21%, -0.7%, 1.6e-09
CC(=O)Nc1nc(C)nc(-c2ccccc2OC(C)=O)n1
→ i, i, -5%, 4.9%, 1e-09

Remaining list, next part
Each structure is followed by: A488 autofl, Resorufin fluor, TSHR agonist, AID923, A647 autofl
COc1ccccc1NC(=O)CN1CCN(CC(=O)Nc2ccc3c(c2)OCO3)CC1
→ i, i, -2%, 0.1%, 4.3e-09
O=C(NCc1cccnc1)c1cccc(F)c1
→ nt, nt, 2%, 1.6%, nt
N#Cc1c(-c2ccco2)cc(-c2ccccn2)nc1N
→ i, i, ?, 1.9%, 2.9e-08
CN(CC(=O)NC1CCCCC1)S(=O)(=O)c1cccc2cccnc12
→ nt, nt, 10%, -1.0%, nt
Cc1cccc(OCC(O)Cn2c(=N)n(CCN3CCCCC3)c3ccccc32)c1 (stereo not given)
→ i, i, ?, 2.1%, 6.1e-09
C=CCSc1nnc(-c2cccnc2)o1
→ nt, nt, 0%, 0.9%, nt
COc1ccc(-c2cc(C(=O)NCc3ccc(Cl)cc3)no2)cc1OC
→ i, i, 0%[11.4 µM], -0.7%, 1e-09
O=C1CC(c2cccs2)CC2=C1C(c1ccccc1)n1ncnc1N2 (stereo not given)
→ i, i, -5%, -1.3%, 1e-09
COc1ccc(CC(=O)OCc2cc3ccc(C)cc3[nH]c2=O)cc1
→ i, i, ?, -0.2%, 2.1e-08
O=C(CN1CCN(c2ccccn2)CC1)N1c2ccccc2Sc2ccc(C(F)(F)F)cc21
→ i, i, ?, 0.0%, 1e-09
O=S1(=O)CCN2C(Cc3ccc(SC(F)F)cc3)=CSC2=N1
→ i, i, -4%[11.4 µM], -0.3%, 8.6e-09
CCOC(=O)Cn1c(=O)c2c(nc3n2CCS3)n(C)c1=O
→ i, i, -1%, -1.2%, 2e-08
CCOc1ccc(NC(=O)C2CC(=O)N(C)C(=Nc3ccc4c(c3)OCO4)S2)cc1 (stereo not given)
→ i, i, -13%, -0.6%, 1e-09
Cc1ccc(SCc2cc(=O)n3[nH]c(C)nc3n2)cc1
→ i, i, 9%, -0.7%, 6.1e-09
CC(=O)c1c(Nc2ccc3c(c2)OCCO3)oc(C)cc1=O
→ nt, nt, 5%, 7.2%, nt
CC(=Nc1ccc2c(c1)nc(CO)n2C)C1=C(O)CC(C)(C)CC1=O
→ i, i, 1%, 8.3%, 7.4e-09
Cc1cc(=O)n2nc(N3CCCC(C(=O)N4CCOCC4)C3)sc2n1 (stereo not given)
→ i, i, 1%, 0.0%, 3e-08
COc1ccc(CNC(=O)c2ccc(NC(=O)C3CCCO3)cc2)cc1 (stereo not given)
→ i, i, -1%[11.4 µM], -0.4%, 3.5e-08
Cc1ccc(NC(=O)CSc2nnc(COc3ccc(C#N)cc3)n2-c2ccccc2)cc1C
→ i, i, 5%, -0.8%, 5.4e-09
CCOC(=O)CC1=NC(=O)CS1
→ i, i, nt, nt, 8.7e-08
COC(=O)c1ccccc1NC(=O)c1cc(C2CC2)on1
→ nt, nt, 16%, 0.0%, nt
COC(=O)[C@H](CCSC)NC(=O)C/C=C\[C@@H](C)[C@@H](CO)OC
→ nt, nt, ?, -0.2%[11.5 µM], nt
Cc1ccc2c(c1)nnn2C1CCN(CC(=O)NCCc2nc3ccccc3[nH]2)CC1
→ i, i, 2%, -0.7%, 1.2e-08
COc1ccc(-c2noc(CCC(=O)NCCCN3CCC(Cc4ccccc4)CC3)n2)cc1
→ i, i, nt, 1.0%, 1e-09
NC1(C(=O)NC2(C(=O)O)CCCC2)CCCC1
→ i, i, 1%[11.4 µM], 1.8%[11.5 µM], 1.1e-08
C=CCN(CC(=O)NCC1CCCO1)C(=O)CCC(=O)Nc1cc(C)on1 (stereo not given)
→ i, i, 3%, 1.0%, 1.2e-08
COc1ccc(C(C)N2CC34C=CC(O3)C(C(=O)OCC(C)C)C4C2=O)cc1 (stereo not given)
→ nt, nt, 2%, 2.2%, nt
CC(N=Cc1cccc(O)c1O)c1ccccc1 (stereo not given)
→ nt, nt, -8%, 3.0%, nt
COc1ccc(Cn2nnnc2C(c2ccccc2)N2CCN(C3CCCC3)CC2)cc1 (stereo not given)
→ i, i, 7%, 1.1%, 1.9e-08
CC1CC(C)CN(c2ncc3c(n2)CC(c2ccccc2Cl)CC3=O)C1 (stereo not given)
→ i, i, -45%[inhibitor], -2.1%, 1e-09
CC(C)N1C(=O)C2C(C(=O)NCc3ccccc3)C3C=CC2(O3)C1C(=O)NC(C)(C)C (stereo not given)
→ i, i, -12%, -1.1%, 6.1e-08
CN(C)c1nc2n(c(=O)n1)CCO2
→ i, i, -1%, -2.7%, 2.2e-08
CCCCc1nc(SCC(=O)Nc2ccc(S(N)(=O)=O)cc2)n[nH]1
→ i, i, 0%, 0.9%, 1e-09
C[n+]1ccccc1/C=N\O
→ i, i, nt, 0.2%[25.7 µM], 3.5e-09
CCOCCCN(C(=O)Cn1nnc2ccccc21)C(C(=O)NCc1ccco1)c1ccncc1 (stereo not given)
→ i, i, 0%, 1.5%, 5.7e-09
O=C(C1CCN(S(=O)(=O)c2cccc3nsnc23)CC1)N1CCCc2ccccc21
→ i, i, 1%, 0.4%, 1e-09
C/C(Cl)=C/Cn1c(NCCCn2ccnc2)nc2c1c(=O)[nH]c(=O)n2C
→ i, i, 0%, -2.4%, 1e-09

One compound at a time (already shown). Order of values: A488 autofl | Resorufin fluor | TSHR agonist | AID923 | A647 autofl
Entry for COc1ccc(CC(=O)OCc2cc3ccc(C)cc3[nH]c2=O)cc1 = i | i | ? | -0.2% | 2.1e-08
Entry for COc1ccc(C(C)N2CC34C=CC(O3)C(C(=O)OCC(C)C)C4C2=O)cc1 (stereo not given) = nt | nt | 2% | 2.2% | nt

Some of the compounds tested, so the mix of outcomes need not match the whole.
